# Screening data from PubChem.
# Sa growth inh – inhibitors of Staphylococcus aureus growth at 42 °C | S. aureus RN4220 growth, OD600, 20 h; hits give low values | relative growth, % (test concentration not listed) | AID 720641 | 170,000 compounds, 0.53% hits;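 active means growth at 42 °C up to 50% and 20 or more points under that at 30 °C, or under 10% at both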;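 further: 300 nL library stock went into each well; scaled to the means of positive and negative controls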
# HCMV UL50-53 inh – cytomegalovirus nuclear egress complex inhibition. HTRF UL50-UL53 interaction, normalized percent inhibition. inhibition, % (test concentration not listed). 190,000 compounds, 0.15% hits;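 active means both replicates at 50% or more, plus weaker picks with an unusually low signal ratio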;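 further: stock transfer was 100 nL into about 20 µL; 0% = negative control wells and 100% = wells with untagged competitor protein; inactives centre near -12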
# GIV Gai3 FP – blocks GIV peptide binding to rat Galpha-i3; Galpha-i3/FITC-GIV peptide fluorescence polarization, 90 min; hits give low values; scaled: aluminum fluoride 0%, vehicle 100%; percent of control (FP), % (concentration not given with the values); 210,000 compounds, 0.42% hits;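 active means replicate mean at 85% of control or lower, very high polarization wells dropped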;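 further: wells of about 15 µL received 100 nL stock; the first replicate is given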
# Target sequence (P08753 whole entry, looked up): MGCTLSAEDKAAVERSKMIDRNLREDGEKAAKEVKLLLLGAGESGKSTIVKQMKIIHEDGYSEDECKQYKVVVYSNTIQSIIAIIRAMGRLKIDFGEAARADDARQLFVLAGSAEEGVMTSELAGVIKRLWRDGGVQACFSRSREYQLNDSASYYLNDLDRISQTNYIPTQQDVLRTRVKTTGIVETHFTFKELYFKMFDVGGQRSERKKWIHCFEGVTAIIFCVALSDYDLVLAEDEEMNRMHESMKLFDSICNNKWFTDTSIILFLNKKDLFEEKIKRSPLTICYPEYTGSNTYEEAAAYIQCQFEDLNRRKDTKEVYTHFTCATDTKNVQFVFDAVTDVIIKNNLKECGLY
# Sa growth inh second temp – recorded beside Sa growth inh, whose call it bears; relative growth, %; measured here: growth at 30 °C;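 optical density after 20 h as mean of two plates; 100% = untreated growth and lower means inhibition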
# Numbers without * were called inactive; · = no result given; & = joins results of further samples.
# Short forms – A = Sa growth inh; B = Sa growth inh second temp; C = HCMV UL50-53 inh; D = GIV Gai3 FP
CCCCN(Cc1nc2nc(C)cc(C)n2n1)S(=O)(=O)c1ccccc1
  A: · | B: · | C: -27.4 | D: 104.1
O=C1CCc2cc(C3=CSC4=NCCN34)ccc2N1
  A: 90.2 | B: 93.0 | C: 39.8 | D: 107.8
CC1CCCCC1NC(=O)COc1ccc(-n2cnnn2)cc1 (stereo unspecified)
  A: 95.1 | B: 89.0 | C: -7.6 | D: ·
Cc1cc(C)cc(NC(=O)Nc2ccc(Nc3cc(N(C)C)nc(C)n3)cc2)c1
  A: · | B: · | C: -32.6 | D: 98.7
Cc1ccc(S(=O)(=O)n2cccn2)cc1C
  A: 98.8 | B: 97.2 | C: · | D: 95.4
O=S(=O)(Nc1cccc(N2CCCS2(=O)=O)c1)c1ccc(Cl)cc1
  A: · | B: · | C: -7.7 | D: 97.4
CN(C)Cc1c(N)cc2ccccc2c1-c1ccccc1
  A: 62.4 | B: 67.4 | C: -12.9 | D: ·
Cc1cccc(C2C=C(c3ccc(C)c(C)c3)Nc3nnnn32)c1 (stereo unspecified)
  A: 99.9 | B: 99.9 | C: · | D: 103.8
CCOC(=O)c1c(NC(=O)C23CC4CC(CC(C4)C2)C3)sc(C(=O)Nc2ccc(OC)cc2OC)c1C
  A: · | B: · | C: -26.4 | D: 103.2
COc1ccc(C(CC(=O)Nc2ncccc2C)N2Cc3ccccc3C2=O)cc1OC (stereo unspecified)
  A: 113.7 | B: 89.5 | C: · | D: 98.3
COc1ccc(CC(=O)Nc2c(-c3ccc(F)cc3)nc3ccccn23)cc1
  A: 112.4 | B: 81.6 | C: 4.1 | D: 97.0&104.4
Cn1c(=O)c(=O)n(C)c2cc(S(=O)(=O)NCCN3CCCCCC3)ccc21
  A: 111.7 | B: 93.3 | C: 3.7 | D: 103.8
Cc1nc(Nc2nc3ccccc3o2)ncc1C(=O)Nc1cccc(C(F)(F)F)c1
  A: 97.8 | B: 86.1 | C: · | D: 99.9
CSc1cccc(NS(=O)(=O)c2cccs2)c1
  A: 119.2 | B: 84.0 | C: · | D: 114.0
Cc1c(C(=O)Nc2ccc(OC(F)F)cc2)oc2ccc(Cl)cc12
  A: 111.5 | B: 92.2 | C: -5.4 | D: 101.8
COc1ccc(C(=O)NCc2nnnn2-c2ccc(C)c(C)c2)cc1
  A: 89.7 | B: 85.8 | C: · | D: 100.1
CC(C)(O)C#Cc1ccc(C(=O)N2CCC(C(O)(c3ccccc3)c3ccccc3)CC2)o1
  A: 76.9 | B: 84.4 | C: -13.5 | D: ·
Cc1cccc(NS(=O)(=O)c2ccc3c(c2)OCC(C(=O)N2CCCC2)O3)c1C (stereo unspecified)
  A: 100.5 | B: 83.0 | C: · | D: 101.8
CCOC(=O)C1=C(CN2CC=C(c3ccccc3)CC2)NC(=O)NC1c1cccc(OC)c1OC (stereo unspecified)
  A: 69.3 | B: 44.2 | C: -36.6 | D: 102.9
Cc1ccc(-c2n[nH]c3c2C(c2ccc(C(C)(C)C)cc2)NC3=O)cc1 (stereo unspecified)
  A: · | B: · | C: 5.7 | D: 107.9
COc1ccc(NC(=O)/C(C#N)=C/c2cc(C)n(-c3ccc(F)cc3)c2C)cc1
  A: 95.8 | B: 91.8 | C: -0.3 | D: 99.2
CC(C)(C)c1ccc(C(=O)CC(N)=O)cc1
  A: 109.3 | B: 80.8 | C: 10.8 | D: 103.5
Cc1cc(NCC2CCCO2)n2nc(C(F)(F)F)c(-c3ccc(F)cc3)c2n1 (stereo unspecified)
  A: · | B: · | C: -10.8 | D: 98.3
O=C(Nc1ccc(NC(=O)c2ccccc2F)cn1)c1ccco1
  A: 95.6 | B: 81.7 | C: -5.1 | D: 95.6
Cc1cc2oc(=O)cc(COC(=O)c3cccc(N(C)C)c3)c2cc1C
  A: 94.4 | B: 91.1 | C: -14.5 | D: ·
Cc1cc(N)ccc1-c1ccc(CO)o1
  A: 77.1 | B: 84.4 | C: -35.1 | D: 105.7
COc1ccc(C(C(=O)NC2CCCCC2)N(Cc2ccc3c(c2)OCO3)C(=O)c2cnccn2)cc1OC (stereo unspecified)
  A: 128.2 | B: 82.1 | C: 9.3 | D: 99.0
O=C(Nc1sc2c(c1C(Nc1ccccn1)c1ccc3c(c1)OCO3)CCCC2)c1ccccc1 (stereo unspecified)
  A: · | B: · | C: -10.5 | D: 111.9
Fc1ccc(-c2csc(=Nc3cccc(C(F)(F)F)c3)n2Cc2ccc3c(c2)OCO3)cc1
  A: 103.1 | B: 93.2 | C: 7.7 | D: 103.8
S=C1CSc2ccccc2N1
  A: 81.3 | B: 72.1 | C: -23.4 | D: 105.5
Cc1ccsc1CCN1C(=O)N(c2ccccc2)C(=O)C1CC(=O)Nc1ccc(F)cc1 (stereo unspecified)
  A: 99.4 | B: 75.5 | C: 8.0 | D: 106.1
Cn1cnnc1SCC(=O)N1CCCC1
  A: 101.1 | B: 105.6 | C: -1.4 | D: 106.3
Cc1cccc(-c2nc(C)c(CCNC(=O)C(=O)Nc3ccccc3C#N)s2)c1
  A: 135.5 | B: 66.8 | C: · | D: 107.2
COC(=O)C1=Cc2cc(Cl)ccc2OC1
  A: · | B: · | C: -15.7 | D: 97.5
COc1cccc(CNC(=O)Cn2ncn3nc(-c4cccs4)cc3c2=O)c1OC
  A: 102.5 | B: 73.2 | C: -5.6 | D: 100.8
CCN(CC)CCCNc1nc2cc(OC)c(OC)cc2c2nc(-c3cccnc3)nn12
  A: 93.5 | B: 90.1 | C: -2.3 | D: 105.1
CC(C)CNC(=O)C1CCCN(C(=O)NCc2ccccc2)C1 (stereo unspecified)
  A: 110.5 | B: 81.2 | C: -10.1 | D: 96.4
CCc1nc2ccc(C(=O)NCCCN3CCCCC3)cc2nc1CC
  A: 102.5 | B: 90.1 | C: -31.2 | D: 105.3
CN=C(Nc1ccnn1C(C)C)c1ccccc1
  A: 94.0 | B: 92.5 | C: -5.8 | D: ·
COc1ccc(S(=O)(=O)Nc2cc(S(=O)(=O)c3ccccc3)c(O)c(C)c2C)cc1
  A: 82.3 | B: 90.7 | C: -25.3 | D: 110.3
C=CCSc1nnc2c(n1)OC(c1ccc(-c3ccc(F)cc3)o1)N(C(C)=O)c1ccccc1-2 (stereo unspecified)
  A: 109.1 | B: 89.9 | C: · | D: 105.2
CCOC(=O)COc1ccc(Br)cc1C#N
  A: 99.7 | B: 96.0 | C: 2.3 | D: ·
O=C(c1ccccc1)c1nc2c(ccc3ccccc32)o1
  A: 80.2 | B: 96.3 | C: -12.5 | D: ·
O=C(Nn1c(=S)[nH]c2ccccc2c1=O)c1ccncc1
  A: 105.3 | B: 101.2 | C: -9.0 | D: 105.6
COc1ccc(-c2noc(N3CCC(C(=O)N4CCN(c5ccccc5)CC4)CC3)n2)cc1
  A: 94.4 | B: 86.8 | C: -25.8 | D: 106.0

# Next part; it opens with the 7 that closed the last part.
# Short forms – A = Sa growth inh; B = Sa growth inh second temp; C = HCMV UL50-53 inh; D = GIV Gai3 FP
CN=C(Nc1ccnn1C(C)C)c1ccccc1
  A: 94.0 | B: 92.5 | C: -5.8 | D: ·
COc1ccc(S(=O)(=O)Nc2cc(S(=O)(=O)c3ccccc3)c(O)c(C)c2C)cc1
  A: 82.3 | B: 90.7 | C: -25.3 | D: 110.3
C=CCSc1nnc2c(n1)OC(c1ccc(-c3ccc(F)cc3)o1)N(C(C)=O)c1ccccc1-2 (stereo unspecified)
  A: 109.1 | B: 89.9 | C: · | D: 105.2
CCOC(=O)COc1ccc(Br)cc1C#N
  A: 99.7 | B: 96.0 | C: 2.3 | D: ·
O=C(c1ccccc1)c1nc2c(ccc3ccccc32)o1
  A: 80.2 | B: 96.3 | C: -12.5 | D: ·
O=C(Nn1c(=S)[nH]c2ccccc2c1=O)c1ccncc1
  A: 105.3 | B: 101.2 | C: -9.0 | D: 105.6
COc1ccc(-c2noc(N3CCC(C(=O)N4CCN(c5ccccc5)CC4)CC3)n2)cc1
  A: 94.4 | B: 86.8 | C: -25.8 | D: 106.0
Cc1ccc(NC(=O)CCc2nnc3ccc(NCCc4sccc4C)nn23)cc1
  A: · | B: · | C: -19.0 | D: 97.7
CCC(C)NC(=O)c1n[nH]c(=O)c2ccccc12 (stereo unspecified)
  A: 79.8 | B: 91.0 | C: -16.2 | D: ·
Cc1ccccc1Nc1ccc2cc(S(=O)(=O)N3CCOCC3)ccc2n1
  A: · | B: · | C: -16.0 | D: 102.1
Cc1cc2ccccc2n1-c1ccc(C(=O)N2CCc3ccccc32)s1
  A: 92.1 | B: 87.1 | C: 9.4 | D: 100.4
COCCCN1C(=O)c2c(NC(C)=O)c3cc(OC)ccc3n2CC1(C)C(=O)NC1CCCCC1 (stereo unspecified)
  A: · | B: · | C: -55.7 | D: 107.1
NS(=O)(=O)c1ccc(CCNC(=O)CN2CC(=O)Nc3ccccc32)cc1
  A: 98.9 | B: 100.8 | C: 11.7 | D: ·
Cn1c(SCc2ccc3c(c2)OCO3)nc2ccccc2c1=O
  A: 70.6 | B: 85.8 | C: -21.1 | D: ·
CCC1CCc2nc3sc(C(=O)Nc4ccc(C)cc4C)c(N)c3cc2C1 (stereo unspecified)
  A: 99.7 | B: 88.9 | C: -22.9 | D: 108.0
N#Cc1cn(CC(=O)N2CCc3ccccc32)c2ccccc12
  A: 92.6 | B: 102.5 | C: 9.1 | D: ·
COc1ccc(C(=O)COC(=O)c2ccccc2N2C(=O)C3C4C=CC(C4)C3C2=O)cc1 (stereo unspecified)
  A: · | B: · | C: -9.1 | D: 106.5
COc1ccc(OC)c(S(=O)(=O)Nc2cc3c(cc2N2CCOCC2)n(C)c(=O)n3C)c1
  A: 106.7 | B: 78.2 | C: -14.6 | D: 101.9
CCc1ccc(CCC(=O)Nc2ccc(S(N)(=O)=O)cc2)o1
  A: 109.2 | B: 72.0 | C: -5.2 | D: 108.0
CC(C)NC(=O)c1ccc(-n2c(-c3ccccc3)cc3c2CCCC3)cc1
  A: 104.6 | B: 87.4 | C: 5.2 | D: 105.9
CCOc1cc(C)c(C(C)C)cc1S(=O)(=O)n1ccnc1CC
  A: 55.0 | B: 49.5 | C: -19.3 | D: 103.5
COc1cc(C(=O)Nc2ccc(Cl)c(-c3nc4ncccc4o3)c2)cc(OC)c1OC
  A: 95.7 | B: 104.1 | C: 1.4 | D: 104.8
CCOC(=O)N1CCc2c(sc3c2c(=O)n(-c2ccc(CC)cc2)c(=O)n3CC(=O)c2ccccc2)C1
  A: 105.3 | B: 87.3 | C: -15.0 | D: 100.0
CC(C)Sc1nc(-c2cccs2)cc(C(F)(F)F)c1C#N
  A: 97.0 | B: 84.7 | C: -46.3 | D: 103.1
CCn1nc(C)c2c1c(=O)n(Cc1ccc(F)cc1)c(=O)n2CC(=O)NCC1CCCO1 (stereo unspecified)
  A: · | B: · | C: 9.0 | D: 104.9
Nc1nc(Nc2ccccc2)sc1C(=O)c1ccccc1
  A: · | B: · | C: -11.8 | D: 102.5
CCCn1c(CN2CCCC2)nc2cc(NC(=O)C3CCCCC3)ccc21
  A: · | B: · | C: 3.1 | D: 104.8
CCOc1ccc(CNC(=O)C2CCN(C(=O)c3sccc3-n3cccc3)CC2)cc1
  A: 99.9 | B: 86.3 | C: -19.7 | D: 103.2
CCOc1ccccc1NC(=O)c1sc2ncnc(N3CCCCC3C)c2c1C (stereo unspecified)
  A: · | B: · | C: -1.9 | D: 89.8
CC(=S)Nc1ccc(Nc2ccccc2)cc1
  A: 126.8 | B: 79.5 | C: -14.9 | D: 98.2
CN1CCc2c(sc3c2CN(C(=O)Nc2cc(F)ccc2F)C(c2ccc(Cl)cc2)c2cccn2-3)C1 (stereo unspecified)
  A: · | B: · | C: 7.7 | D: 107.9
CCCC(=O)Nc1ccc2c(c1)nc(CCNC(=O)C1CC1)n2C
  A: · | B: · | C: -12.0 | D: 106.6
COC(=O)c1cccc(NC(=O)COC(=O)c2cc3ccccc3o2)c1
  A: 94.1 | B: 89.8 | C: -3.6 | D: ·
CC(C)C(Nc1ncnc2c1oc1ccccc12)C(=O)O (stereo unspecified)
  A: 100.3 | B: 92.2 | C: 12.8 | D: 97.3
Cn1ncc(NCCc2ccncc2)c(Cl)c1=O
  A: 99.2 | B: 94.4 | C: -21.4 | D: 104.8
Cn1c(O)c(C2=Nc3ccccc3SC(c3ccc4c(c3)OCO4)C2)c(=O)[nH]c1=O (stereo unspecified)
  A: · | B: · | C: -21.6 | D: 98.1
CCOC(=O)c1c(-c2ccc(C)cc2)csc1NC(=O)c1csnn1
  A: · | B: · | C: -11.2 | D: 97.9
O=C(OCC(=O)c1cc2ccccc2o1)c1cc(F)cc(F)c1
  A: 92.6 | B: 95.0 | C: -12.7 | D: ·
CCCN(CC1CC1)C(=O)COc1ncnc2sccc12
  A: 90.3 | B: 87.4 | C: -23.2 | D: ·
CCOC(=O)c1cn[nH]c1S(=O)(=O)Nc1c(C)cccc1C
  A: · | B: · | C: -20.5 | D: 95.9

# An unsorted share of the library. About 0.79% of those tested had a hit in this group.
